# T cruzi repl = blocks replication of Trypanosoma cruzi; 300,000 tested, 1.4% active; T. cruzi beta-gal in NIH3T3, luminescence, 90 h; AID 1885; inhibition, % (test concentration not listed);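 active means mean inhibition across valid replicates above about 55%, limit read from the data; inconclusive means mean below that limit but half or more replicates reach it; inactive means mean below it, under half of replicates reach it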;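 further: signal also drops with host cell toxicity which is not excluded here; 0% = plate median of DMSO wells and 100% = zero luminescence signal; higher percent means less beta-gal luminescence so fewer parasites; stock transfer was 50 nL into about 50 µL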
# Calb FLC = affects C. albicans growth with fluconazole; C. albicans CaCi-2 (fluconazole-resistant clinical isolate) + fluconazole, Alamar Blue growth, 48 h; 300,000 tested, 0.57% active; growth inhibition, % (concentration not given with the values); AID 1979;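 active means most replicates above 75%; inconclusive means exactly half above 75%; inactive means most below 75%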;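 further: all wells also contain fluconazole at 8 µg/ml as a sub-toxic cotreatment; 0% = median of DMSO wells and 100% = median of geldanamycin control wells; wells of about 8 µL received 7.5 nL stock; the first replicate is given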
# LANA-H2A inh = blocks KSHV LANA binding to histone H2A/H2B; cell-free LANA-H2A/H2B peptide, fluorescence polarization; Q9QR71; inhibition, % (concentration not given with the values); 320,000 tested, 0.6% active; in the data active means inhibition mostly above about 10%, no sharp cut-off; inactive means mostly below about 6.7%;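 further: stock transfer was 7.5 nL into about 10 µL; 0% = median of vehicle wells and 100% = median of positive control wells; one replicate is shown; the record names a cut of 25% in any replicate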
# Beta apoptosis = blocks beta cell apoptosis; INS-1E cytokine-induced death, ATP luminescence, 48 h; percent of positive-control rescue, neutral wells zero; protection from apoptosis, % (no concentration beside the values); 300,000 tested, 0.8% active; AID 435005;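 active means all replicates at 75% or more, or half of them and the mean; inconclusive means half reach 75% but not the mean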;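 further: 0% = cytokine-treated negative control wells and 100% = positive control rescue; higher means more ATP so stronger rescue from cytokine killing; wells of about 40 µL received 100 nL stock; the first replicate is given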
# Bfl-1 A1 inh = inhibitors of the anti-apoptotic protein A1, read as caspase activation; MEF A1-2A-BIM cells, Caspase-Glo 3/7 luminescence, 3 h; percent of clofoctol response, vehicle zero; caspase activation, % (no concentration beside the values); 330,000 tested, 0.066% active;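 active means over half of replicate activation scores above 10%, or exactly half above 10 with the replicate mean above 10; inconclusive means replicate mean below 10 yet half the replicates above 10; inactive means over half of replicates below 10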;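 further: wells of about 30 µL received 50 nL stock; many hits fall short of the cut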
# RanGTP-Impb inh = disruptors of Ran-importin-beta complex formation – biochemical, FRET, CFP-Ran, YFP-importin-beta, homogeneous, primary screen; cell-free CFP-Ran/YFP-importin-beta FRET ratio; inhibition, % (test concentration not listed); 300,000 tested, 1.1% active; AID 2216;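 active means most replicates above 15%; inconclusive means exactly half above 15%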;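 further: 0% = DMSO wells and 100% = Ran loaded with GDP instead of GTP; wells of about 40 µL received 100 nL stock; the first replicate is given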
# UCH37 inh = blocks the human deubiquitinase UCH37 | Q9Y5K5 | purified proteasome/UCH37, Ub-AMC cleavage fluorescence | AID 588478 | 330,000 tested, 0.33% active | inhibition, % (concentration not given with the values);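 active means mean of two replicates above 20%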;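 further: 0% = compound-free wells with enzyme and 100% = wells lacking proteasome; stock transfer was 100 nL into about 20 µL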
# Target sequence (Q9Y5K5 whole entry, looked up): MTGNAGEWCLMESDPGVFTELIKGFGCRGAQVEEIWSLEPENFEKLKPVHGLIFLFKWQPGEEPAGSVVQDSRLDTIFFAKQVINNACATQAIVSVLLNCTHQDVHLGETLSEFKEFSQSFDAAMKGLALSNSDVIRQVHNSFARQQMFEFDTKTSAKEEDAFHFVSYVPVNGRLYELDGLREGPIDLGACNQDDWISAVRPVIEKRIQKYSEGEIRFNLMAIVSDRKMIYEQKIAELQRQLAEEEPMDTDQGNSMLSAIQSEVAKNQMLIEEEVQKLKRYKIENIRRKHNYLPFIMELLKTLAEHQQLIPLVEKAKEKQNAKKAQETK
#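 Schedule: 30 min plus 25 min, room temperature / Material: human UCH37 within purified proteasomes / Technique: AMC fluorescence intensity at 355/460 nm / Buffer or medium: pH 7.4 Tris-HCl (50 mM) with ovalbumin, ATP-MgCl2, DTT / Controls: wells without proteasome as full block, compound-free enzyme plus substrate as uninhibited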
# B2AR ag = agonists of human beta-2 adrenergic receptor inducing internalization | Am2.2-beta2AR cells, FAP receptor internalization, flow cytometry; reference of the scale not given here | P07550 | 340,000 tested, 0.43% active | response, % (concentration not given with the values);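 active means response above a set limit, near 3 SD of response in nonfluorescent compounds, cut at about 42% in these data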;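 further: stock transfer was 100 nL into about 11 µL; a reference agonist was the positive control; negative values mostly stem from fluorescent compounds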
# Target sequence (P07550 whole entry, looked up): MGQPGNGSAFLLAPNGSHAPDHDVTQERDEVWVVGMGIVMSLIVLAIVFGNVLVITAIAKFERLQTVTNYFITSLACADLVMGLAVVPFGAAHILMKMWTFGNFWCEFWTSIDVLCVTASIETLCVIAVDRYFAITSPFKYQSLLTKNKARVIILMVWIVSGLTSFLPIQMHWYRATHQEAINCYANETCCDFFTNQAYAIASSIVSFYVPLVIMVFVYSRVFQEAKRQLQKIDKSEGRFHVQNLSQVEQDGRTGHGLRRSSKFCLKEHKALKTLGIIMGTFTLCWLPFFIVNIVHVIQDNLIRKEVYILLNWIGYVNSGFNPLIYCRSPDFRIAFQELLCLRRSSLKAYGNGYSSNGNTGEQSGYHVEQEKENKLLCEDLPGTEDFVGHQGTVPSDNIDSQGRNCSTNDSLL
# * marks the source's active call; other numbers are inactive results; ? = inconclusive; . = no result given. Compounds as they come; 4.3% or so of the library scored in one or more.
# A first look, two compounds:
SMILES,T cruzi repl,Calb FLC,LANA-H2A inh,Beta apoptosis,Bfl-1 A1 inh,RanGTP-Impb inh,UCH37 inh,B2AR ag
CC(C)N(C(=O)CSc1nnc(NC(=O)C2CCC2)s1)C(C)C,?,7,6.4,-2,2.1,2.2,1.9,-3
Cc1cccc(S(=O)(=O)CC(=O)Nc2nc(-c3ccccc3)cs2)c1,6,-1,2.0,-6,-0.7,-4.7,5.7,-3

# The listing, repeating the preview:
SMILES,T cruzi repl,Calb FLC,LANA-H2A inh,Beta apoptosis,Bfl-1 A1 inh,RanGTP-Impb inh,UCH37 inh,B2AR ag
CC(C)N(C(=O)CSc1nnc(NC(=O)C2CCC2)s1)C(C)C,?,7,6.4,-2,2.1,2.2,1.9,-3
Cc1cccc(S(=O)(=O)CC(=O)Nc2nc(-c3ccccc3)cs2)c1,6,-1,2.0,-6,-0.7,-4.7,5.7,-3
COc1ccc([C@H]2CC(=O)C=C(c3ccc(Cl)c(Cl)c3)C2)cc1,.,.,0.0,3,1.3,.,-2.1,-4
Cc1ccc2[nH]c(=O)c(CN(Cc3cccnc3)Cc3nnnn3CC3CCCO3)cc2c1 (configuration not stated),1,-2,.,.,.,0.0,-1.3,-6
CCOc1ccc(N2CC(C(=O)Nc3ncccc3C)CC2=O)cc1 (configuration not stated),-10,-11,1.4,2,1.0,3.3,0.8,-5
O=S(=O)(c1cccc(-c2nc3ccccc3s2)c1)N1CCOCC1,9,5,4.4,0,-0.5,7.8,-1.0,-2
O=C(NC(=S)NCCc1ccccc1)c1ccccc1,13,-17,-11,-1,-2.1,5.2,0.6,-3
COCc1cc(C)n(CC(=O)Nc2ccc3c(c2)OCO3)c(=O)c1C#N,-18,-14,0.8,-4,1.4,-2.0,8.5,-5
Cc1ccc(SCC(=O)NC(=O)NCCC(C)C)c(C)c1,2,-3,0.3,-5,0.1,0.7,1.9,0
N#Cc1c2c(c(-n3cnc4ccccc43)n3c1nc1ccccc13)CCC2,11,-3,-1.1,-8,-0.3,-1.4,-7.1,16
COc1cc(C=O)c(Br)cc1OCc1ccc(C)cc1,13,-3,0.8,-8,-1.2,3.6,0.9,8
Cc1cnc(C(=O)Oc2c(C)ccc(C)c2C)cn1,-7,-5,4.2,-3,-0.6,-0.3,4.3,2
Cc1nc2c(C)cccc2c2c1CCS2,-4,4,2.5,-15,-0.1,0.8,2.6,-2
Cc1ccc(-c2cc(-c3ccccc3)nc(N(C)N)n2)cc1,-2,4,-5.1,1,0.0,-1.3,0.2,12
Cc1ccc(NC(=O)COC(=O)CN2C(=O)c3ccccc3C2=O)cc1S(=O)(=O)N(C)C,-14,10,-4.2,1,0.1,40*,4.3,-9
Cc1ccc(SCc2cc(=O)[nH]c(Nc3nc(C)c4ccccc4n3)n2)cc1,13,14,-1.5,-2,-0.3,-2.1,1.3,-2
COc1cc(NC(=O)C2CCC(=O)N2S(=O)(=O)c2ccc(C)cc2)cc(OC)c1 (configuration not stated),-4,0,-0.1,-7,-0.3,-2.9,0.7,3
C[C@H]1CCC(=O)N([C@H](CC#N)Cc2ccccc2)CC1,-18,-1,1.1,-12,1.6,-1.1,4.2,-2
Cc1ccc(N(CC(=O)NCc2ccccc2Cl)S(=O)(=O)c2c(C)noc2C)cc1,18,-3,-0.3,6,0.0,0.6,0.8,-1
Cc1ccc(S(=O)(=O)N2CCN(C(=O)Cn3nc(C)c([N+](=O)[O-])c3C)CC2)cc1,.,.,0.1,-2,-1.0,.,5.8,3
Cc1ccc(Nc2nc(Cl)c(C=O)s2)cc1,-10,3,-2.1,11,-1.6,6.3,-1.1,-26
O=C(NCc1cn2ccccc2n1)c1ccc2c(c1)OCO2,-11,5,-2.2,-6,0.5,.,1.0,-2
O=C(CSc1cccc[n+]1[O-])N1CCCCCC1,2,0,0.1,-4,0.1,3.1,-2.1,6
COc1cc(/C=N/NC(=O)c2c(-c3ccccc3)noc2C)ccc1O,0,-3,2.0,-3,0.2,1.5,.,2
Nc1cccc(Cl)c1N1CCOCC1,-14,-6,-2.9,-5,-0.4,3.4,4.5,8
COc1cc(CN(CC2CCCO2)C(=O)c2cccs2)cc(OC)c1OC (configuration not stated),-7,-7,.,.,.,2.8,0.5,-1
CN(c1ccc(OCC(=O)NCc2cccnc2)cc1)S(=O)(=O)c1ccc(Cl)cc1,1,5,2.8,7,-0.1,2.3,8.0,-5
CCOC(=O)c1c(S(=O)(=O)N2CCN(C)CC2)c(C)n(C)c1C,-7,4,0.9,.,2.6,0.3,1.8,4
CCC(=O)Nc1ccc(S(=O)(=O)N2CCOCC2)cc1,-14,-8,5.4,0,0.9,-1.7,2.0,1
CCOCCn1c(CN2CCN(c3cccc(Cl)c3)CC2)nc2c1c(=O)n(C)c(=O)n2C,-4,-1,0.3,-4,-0.1,-0.5,-1.4,5
CCOc1ccc2nc(N(Cc3ccccc3)C(=O)CCNC(C)=O)sc2c1,-2,1,-0.4,2,-0.2,?,1.8,2
COc1ccc2cc3cc(C(=O)NCCC(C)C)oc3nc2c1,-7,0,1.8,-5,-1.5,-0.1,-422,-2
COc1cccc(/C=N/NC(=O)C(=O)Nc2ccccc2OC(F)(F)C(F)F)c1,0,1,7.3,1,0.5,-0.4,.,-3
O=c1c2ccccc2nnn1CSc1nc2ccccc2c(=O)n1Cc1ccco1,18,-2,1.0,3,0.2,8.1,0.2,-8
Cc1[nH]nc2c1C(c1ccc(-c3ccccc3C#N)o1)C(C#N)=C(N)O2 (configuration not stated),-7,-2,-4.9,-13,0.6,8.4,-8.1,11
NC(=O)COC(=O)c1ccc(Cl)c(S(=O)(=O)N2CCN(c3ccc(F)cc3)CC2)c1,12,33,-1.5,4,1.1,-1.1,0.6,3
O=C(N/N=C\c1ccc(-c2cccc(Cl)c2)o1)C(=O)NC1CCCC1,-11,-4,0.5,2,0.4,2.1,.,2
CCCC1C2C(=O)N(c3ccccc3OC)C(=O)C2ON1c1ccccc1 (configuration not stated),-3,19,2.1,-2,0.6,2.9,6.0,2
CCOC(=O)N1CCC(NC(=O)c2ccc3c(c2)sc2nc(-c4cccc(OC)c4)cn23)CC1,45,18,.,.,.,3.7,-9.0,.
CCOc1ccc(NC(=O)CN(C)C(=O)c2cn(-c3ccccc3)nc2-c2cccs2)cc1OCC,22,2,-2.6,8,-0.3,1.1,1.1,0
COc1ccc(Cl)cc1C(=O)NNC(=O)COC(=O)c1cccs1,.,.,-3.0,-4,0.4,.,0.2,-9
O=c1c(-c2ccccc2)c(-c2ccccc2)oc2cc(O)cc(O)c12,0,-19,-7.1,1,0.9,3.1,3.5,0
CC(=O)NCCC1CCN(C(=O)c2cc(COc3ccc(C)nc3)on2)CC1,-10,-5,-1.9,11,-0.2,-1.3,-0.8,-4
Cc1cc(-c2ccc(S(=O)(=O)NCc3ccc(F)cc3)cc2)on1,-4,11,-2.5,5,2.0,-0.7,6.3,-11
CC1CCN(S(=O)(=O)c2ccc(NC(=O)CN3CCCCCC3)cc2)CC1,-17,14,2.2,-7,0.7,-4.1,5.8,-6
O=C(CN1CCN(c2nc(-c3ccc(F)cc3)cs2)CC1)NCc1ccc2c(c1)OCO2,20,-17,2.6,-8,-1.0,2.9,3.2,-9
CCOc1ccc(S(=O)(=O)N(CC(=O)NC2CCCC2)c2ccc(F)cc2)cc1,7,2,2.1,1,1.5,0.0,1.9,-1
COC(=O)C(C)Sc1nc2c(c(=O)n(C)c(=O)n2C)n1Cc1cccc(C)c1 (configuration not stated),-21,-1,.,.,.,5.5,-5.3,-3
O=C(NCC1CCCO1)c1nc(Cn2ccc([N+](=O)[O-])n2)no1 (configuration not stated),-2,1,6.6,2,-0.3,-1.1,-0.7,-6
Cc1ccccc1-n1cc(C(=O)c2cc(Cl)ccc2O)cc(C#N)c1=O,-22,-1,-8.5,-7,-0.1,-3.6,3.1,3

# Additional results follow:
SMILES,T cruzi repl,Calb FLC,LANA-H2A inh,Beta apoptosis,Bfl-1 A1 inh,RanGTP-Impb inh,UCH37 inh,B2AR ag
CC1CC(c2ccccc2)n2nc(N3C(=O)c4ccccc4C3=O)nc2N1 (configuration not stated),-7,-3,0.1,-5,-0.3,-4.1,1.6,-4
NS(=O)(=O)c1ccc(CCNC(=O)CCc2nc3sc4c(c3c(=O)[nH]2)CCCC4)cc1,-4,3,-0.9,2,1.1,7.9,0.6,9
O=C(CSc1nc2ccccc2o1)N1CCCC1,-24,.,1.7,-7,-0.1,0.8,1.4,5
C[C@H]1[C@H](c2ccccc2)C[C@@H](C(=O)O)C1(C)C,-12,0,1.2,9,2.4,8.5,2.3,13
COC(=O)CCCC1=CC2=CC(=O)C(C)(OC(=O)c3cccs3)C(=O)C2=CN1C1CC1 (configuration not stated),22,18,-2.3,-9,-0.4,-0.5,4.9,4
COc1ccc(-c2nc(N)nc(C(F)(F)F)c2-c2cscn2)c(O)c1,-4,0,0.5,-6,0.5,-2.0,2.8,19
O=C(Nc1ccc(S(=O)(=O)N2CCOCC2)cc1)c1cccnc1,.,0,-1.5,-4,-0.5,-3.5,7.8,-4
COc1ccc(CNC(=O)CSc2cc(=O)n(C)c3ccccc23)cc1,7,-3,2.3,-3,-0.6,4.4,-0.5,-16
COc1ccc(C2C(C(=O)N3CCN(c4ccccc4)CC3)c3ccccc3C(=O)N2C)cc1 (configuration not stated),7,-8,-2.0,-4,1.2,-2.2,0.9,1
O=C(CSc1ccccc1)NCc1cccnc1,0,-3,2.4,-11,-0.6,-2.9,4.1,8
CSc1nnc(-c2ccc(NC(=O)CCc3ccccc3)cc2)n1C,-8,-21,-0.1,-2,0.2,-2.7,4.7,3
COc1ccc2c(Cn3cnc4cc([N+](=O)[O-])ccc4c3=O)cc(=O)oc2c1,28,0,-6.4,2,0.7,-1.8,0.6,0
O=C(COC(=O)CC1CC2CCC1C2)Nc1ccccc1Cl (configuration not stated),.,.,6.6,-1,-0.4,.,5.8,-1
CC(C)(C)C1CCc2onc(C(=O)Nc3cccc(O)c3)c2C1 (configuration not stated),-9,6,-0.1,-5,3.6,5.6,4.0,-12
O=C(NCCCc1ccccc1)C1CC1,-5,-14,-1.4,4,-0.7,1.6,0.1,-10
COc1ccccc1Oc1coc2c(CN3CCN(C)CC3)c(O)ccc2c1=O,5,-1,-4.7,-3,-0.4,0.1,-427,0
N#Cc1c2n(c3c(-c4ccccc4)ncnc13)CCC2,6,?,1.3,-3,0.7,0.7,-3.2,4
COCCCN(CC(=O)Nc1ccc(N2CCOCC2)cc1)S(=O)(=O)c1ccc(C)cc1,12,-6,0.2,-1,1.0,1.5,1.7,-8
COc1ccc2[nH]c3nc(SCC(=O)Nc4cccc(NC(C)=O)c4)nnc3c2c1,-12,-14,-2.4,.,-0.1,1.8,0.3,0
CCc1ccc(/C=N/NC(=O)c2cc(-c3cccc([N+](=O)[O-])c3)n[nH]2)cc1,-39,-2,2.6,29,-0.2,-3.6,.,12
CCOc1ccc(C(=O)Nc2cccc(-c3nc4cccnc4o3)c2)cc1Cl,5,2,4.3,-2,1.5,1.9,-4.2,18
O=C(NN=Cc1ccc(F)cc1)c1ccccc1NS(=O)(=O)c1cccs1,.,.,-3.9,1,-1.5,.,3.8,6
COc1ccc(-c2cc3nc(C)cc(-c4ccc(OC)cc4)n3n2)cc1,8,3,-3.0,2,0.1,3.0,-105,-38
